# Screens as filed in PubChem.
# D2 agonist – human D2 receptor agonism in beta-arrestin assay; P14416; DiscoveRx PathHunter D2 beta-arrestin, luminescence, 90 min; 100% = 57 uM dopamine signal; activation, % (test concentration not listed); 0.084% of 360,000 active; AID 624465; in the data active = activation above about 40%; inconclusive = about 15% to 40%; inactive = below about 15%; note: compound concentration not given in the record; the text of the record calls up to 30% inactive
#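 DiscoveRx PathHunter D2 beta-arrestin cells (2,100/well) attached overnight, then compound-stimulated 90 min at 37 C in HBSS/10 mM HEPES/0.1% Tween-20 buffer; beta-galactosidase complementation read by luminescence after 1 h at ambient temperature. Dopamine 57 uM final (EC100) as control.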
# D2 PAM – human D2 receptor positive allosteric modulation. DiscoveRx D2 beta-arrestin cells, luminescence, 90 min; 100% = 57 uM dopamine signal. potentiation, % (no concentration beside the values). 0.23% of 360,000 active. AID 624464; active = potentiation of 50% or more; inconclusive = 30% to 50%; inactive = 30% or less;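 note: compound concentration not given in the record; tested on top of an EC20 dose of dopamine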
#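 D2 cells co-treated with compound plus 50 nM dopamine (EC20) for 90 min at 37 deg C to detect potentiation. Beta-arrestin recruitment was read as enzyme-fragment luminescence after 1 h at ambient temperature. Full response was set by 57 uM dopamine.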
# TRPML1 ag – agonists of human TRPML1 channel; Q9GZU1; TRPML1-expressing cells, Ca2+ dye fluorescence, FDSS; host cell line not named in the record; reference of the full effect not given here; activation, % (concentration not given with the values); 0.12% of 410,000 active; AID 624414; in the data active = activation above about 50%; inconclusive = about 30% to 50%; inactive = below about 30%; note: 0% is about no effect; the text of the record puts the active cut at 80%
#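 Kinetic FDSS Ca2+ read in Tet-induced TRPML1-DL cells (ABD Ca8 dye plus quencher, 45-90 min RT loading): baseline, then compound, then 110 s agonist window; EC80 agonist 54-4 at 4uM final added afterwards for a 110 s antagonist window.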
# PINK1 modulator – changes PINK1 expression; AID 624263; PINK1 immunofluorescence, high-content cytometry, 24 h; 0.2% of 410,000 active; Potency, µM (titrated, usually from 76.6 µM), without a hit: at the highest dose activation (PINK1 increase), actives largely listed as activators; active = well fitted activation curve with a large enough effect; inconclusive = small, poorly fitted or top-dose-only effect; inactive = flat fitted curve, though single readings scatter; cell line not stated here;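 note: potency is the fitted concentration of half-maximal effect; % of control where 0% means no effect; nearly all actives have a fitted effect of over 65% in size; a mitochondrial uncoupler was the plate control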
#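 Decision-based qHTS: stable cells, 24 h exposure to five compound concentrations, CCCP as control. Fixed cells stained for PINK1 plus nuclear, mitochondrial and cell markers, cytometer read.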
# Six1-Eya2 inh – inhibitors of human Six1/Eya2 interaction. Q15475+O00167. AlphaScreen GST-Six1/His-Eya2 binding, biochemical; hits give low values; control for the full effect not named in the record. activity change, % (concentration not given with the values). 0.56% of 360,000 active; in the data active = activity change below about -65%; inconclusive = about -30% to -65%; inactive = above about -30%; note: % is set by controls: 0 for no effect and ±100 for the full control effect
# Target sequence (O00167 whole entry, looked up): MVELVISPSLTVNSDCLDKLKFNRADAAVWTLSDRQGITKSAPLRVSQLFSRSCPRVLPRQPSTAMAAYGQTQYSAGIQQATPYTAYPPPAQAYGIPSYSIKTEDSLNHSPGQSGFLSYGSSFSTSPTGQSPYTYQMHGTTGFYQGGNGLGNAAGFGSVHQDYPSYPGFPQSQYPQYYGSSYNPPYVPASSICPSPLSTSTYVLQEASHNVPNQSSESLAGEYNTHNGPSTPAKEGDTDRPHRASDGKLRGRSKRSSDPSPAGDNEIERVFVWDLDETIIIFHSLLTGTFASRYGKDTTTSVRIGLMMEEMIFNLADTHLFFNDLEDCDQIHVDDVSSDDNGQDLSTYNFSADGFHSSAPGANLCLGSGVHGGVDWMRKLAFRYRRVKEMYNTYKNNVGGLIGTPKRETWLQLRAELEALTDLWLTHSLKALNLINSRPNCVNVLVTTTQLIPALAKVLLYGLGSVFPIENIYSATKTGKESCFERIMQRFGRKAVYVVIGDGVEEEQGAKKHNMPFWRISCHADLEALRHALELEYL
# Target sequence (Q15475 whole entry, looked up): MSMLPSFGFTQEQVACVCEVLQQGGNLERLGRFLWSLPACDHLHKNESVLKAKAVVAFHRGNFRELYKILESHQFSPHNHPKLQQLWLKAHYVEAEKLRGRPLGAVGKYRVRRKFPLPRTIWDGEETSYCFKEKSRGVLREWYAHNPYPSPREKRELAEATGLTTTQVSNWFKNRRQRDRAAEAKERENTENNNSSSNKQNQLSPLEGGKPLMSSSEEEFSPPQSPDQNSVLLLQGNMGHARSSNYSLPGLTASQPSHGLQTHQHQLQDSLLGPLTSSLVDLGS
#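 AlphaScreen luminescence read after one hour at 37 °C in darkness. Pin-transferred compounds met GST-Six1 and His-Eya2 protein (5X stock 250 nM/500 nM) plus glutathione donor and Ni-chelate acceptor beads (5X, 50 ug/mL).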
# CtBP-E1A blk – blocks the CtBP interaction with E1A | AlphaScreen GST-E1A/His-CtBP binding, 1536-well; hits give low values; control for the full effect not named in the record | activity change, % (no concentration beside the values) | 0.49% of 340,000 active; in the data active means activity change below about -65%; inconclusive means about -30% to -65%; inactive means above about -30%; note: % is set by controls: 0 for no effect and ±100 for the full control effect; compound concentration not given in the record
#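 GST-E1A and His-tagged CtBP (125 nM each as 5X stock) were preincubated with pin-transferred compound for 2 h at 37 °C in the dark, then glutathione donor and nickel acceptor beads were added for 1 h before AlphaScreen reading.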
# * marks the source's active call; other numbers are inactive results; ? = inconclusive; · = not tested or not shown; & = joins results of further samples; [ ] = another dose, or the depositor's remark. Compounds were not picked by outcome. Share with any hit: about 1.3%.
SMILES,D2 agonist,D2 PAM,TRPML1 ag,PINK1 modulator,Six1-Eya2 inh,CtBP-E1A blk
COc1ccc(OC(=O)c2ccc(OC)c(S(=O)(=O)N3CCOCC3)c2)cc1,-2.3,25,-0.2,3.2%,-1,9
O=C(CCN1CCOCC1)N/N=C/c1cc([N+](=O)[O-])ccc1OC(F)F,-3.7,-10,-0.8,0.1%,-1,1
NC(=S)N/N=C1\CCOc2ccc(F)cc21,7.1,-18,1.2,-0.1%,-5,-10
Cc1ccc(S(=O)(=O)N2CCN(C(=O)CCn3cncn3)CC2)cc1C,2.1,-2,-0.2,1.6%,3,-12
CC1(C(=O)NS(=O)(=O)c2ccc(Cl)cc2)CCN1C(=O)Cc1cccc2ccccc12 (configuration not stated),-4.1,-9,-0.6,0.7%,0,0
O=C(CCCn1nnc2ccccc2c1=O)N[C@H](C(=O)O)c1ccccc1,2.8,7,0.4,0.5%,23,·
COc1ccccc1CN(Cc1cc2cc(C)ccc2[nH]c1=O)Cc1nnnn1CC1CCCO1 (configuration not stated),-3.8,-19,1.0,·,-2,4
COc1ccc(-c2ccc(N3C(c4cc(OC)cc(OC)c4)=Cc4ccc(OC)cc4C3CC(C)=O)cc2)cc1 (configuration not stated),·,·,-0.5,3.8%,0,8
Cc1ccc(C)c(NC(=O)c2cc(S(=O)(=O)N3CCCCC3)ccc2N2CCOCC2)c1,-4.3,-10,1.7,2.5%,5,-12
COC(=O)c1ccc(NC(=O)c2cccc(N3C(=O)CCC3=O)c2)cc1,-0.2,-9,0.9,-2.8%,7,0
Cc1ccc(-n2nnnc2SCC(=O)Nc2ccc3c(c2)COC3=O)cc1C,-4.3,-3,-0.2,5.1%,1,-1
O=C(CSc1nc2ccccc2o1)Nc1ccc(N2CCOCC2)c(Cl)c1,3.8,-1,0.4,0.4%,-1,8
COc1ccc2[nH]c3c(c2c1)CCN1C(=O)C(CC(=O)NC/C=C(\C)CCC=C(C)C)C[C@H](C(=O)N(C(C)C)C(C)C)[C@@]31C (some centres not stated),0.1,2,-1.1,22%,0,4
COC(=O)C1CCN(C(=O)COC(=O)/C=C/c2ccc(O)c(OC)c2)CC1,-6.9,-4,0.3,0.9%,6,-3
NC(=O)c1nn(-c2ccccc2)nc1NC(=O)CN1CCCC1,-2.3,-2,0.1,3.1%,0,3
COC(=O)C1=C(NC(=O)c2ccccc2[N+](=O)[O-])CCS1,-1.3,-9,-0.2,-0.8%,-14,-26
CCCc1cc(C(=O)N2CCCC(C(=O)c3cc(C)c(OC)c(C)c3)C2)n(C)n1 (configuration not stated),4.4,-13,1.0,0.9%,2,-15
C[C@H](CO)N1C[C@H](C)[C@H](CN(C)C(=O)c2ccccc2F)Oc2ncc(Br)cc2C1=O,-2.0,4,0.0,0.3%,7,-2
O=C(CN1CCN(c2ccccc2O)CC1)NC(=O)NC1CCCC1,1.8,6,0.4,1.1%,-16,1
O=C1NC(=Nc2ccccc2)S/C1=C\c1cccn1-c1ccccc1,-4.5,-20,-0.1,5.2%,-7,-2
Cc1ccc(S(=O)(=O)c2c(C)cc(C)nc2Cl)c(C)c1,-2.9,-1,1.7,-2.3%,9,10
CN(C)S(=O)(=O)c1ccc(Cl)c(C(=O)NC2CCN(Cc3ccccc3)C2)c1 (configuration not stated),-3.7,-13,0.2,2.6%,13,3
COCCCNC(=O)c1sc2ncn(CC(=O)Nc3ccc(C)c(Cl)c3)c(=O)c2c1C,4.9,-2,0.9,4.6%,1,5
CCOC(=O)C1=CN(C(C)C)CCC1=O,-2.9,-4,-0.4,1.2%,-1,-8
COC(=O)Cn1cnc2c(nnn2-c2ccc(F)cc2)c1=O,-2.7,-8,-0.4,-1.1%,0,-1
CC(C)c1ccc(C(=O)N2CCCN(C(=O)c3ccc(C(C)C)cc3)CC2)cc1,-2.1,-17,4.2,2.0%,4,-1
COc1ccc(C(=O)Nc2nc(C)c(C(C)=O)s2)cc1S(=O)(=O)N1CCOCC1,-1.8,-2,0.5,?,4,-8
N#CCCN(C(=O)COc1ccc(F)cc1Br)c1ccccc1F,-3.6,-3,-0.6,-1.5%,7,-1
Cc1nc(COC(=O)c2c(C)nn(-c3ccccc3)c2C)cs1,-3.1,6,-0.1,2.2%,?,-8
CSc1nnc(Cn2c(=O)sc3ccccc32)n1-c1cccc(Cl)c1,-2.4,7,0.5,-2.3%[38.3 µM],-2,0
Fc1ccc(-c2ccc(Nc3cccc(F)c3)nn2)cc1,1.8,-2,-0.9,0.5%,4,5
CN(CC(=O)NCc1ccc(Cl)cc1)S(=O)(=O)c1cccs1,-0.3,-2,-1.3,0.9%,10,26
CCCn1cnc2cc(NC(=O)c3cccs3)ccc21,-3.1,-13,-0.1,4.1%,6,5
COc1ccc(C(=O)c2ccc(N(C)C)cc2)c(OC)c1,-3.2,0,0.6,19%[38.3 µM],-4,-3
O=C(c1cccc(F)c1)N1CCCc2ccccc21,0.6,-3,0.1,2.5%,8,6
Cc1c(-c2ccccc2)c(P(=O)(N2CCOCC2)N2CCOCC2)c2ccccn12,0.2,-9,-0.1,·,-1,-11
COc1ccc(-c2nc(-n3c(C)c(C(C)=O)c(C(C)=O)c3C)sc2C)cc1,-2.8,-17,2.0,-3.3%,-1,23
COc1ccc(Br)cc1S(=O)(=O)n1ccnc1C,-2.5,11,-0.8,3.1%,5,5
CCc1ccccc1NC(=O)c1ccc([N+](=O)[O-])s1,12,?,0.2,17%,2,4
O=C(NNS(=O)(=O)c1ccc(F)cc1)c1ccc([N+](=O)[O-])cc1,2.2,-1,-0.4,1.6%,2,4
CC(O)[C@H]1CNC(=O)C(=O)N1CCc1cccc2ccccc12 (some centres not stated),0.8,-6,-0.4,-0.9%,0,·
Cc1nn(CC(=O)NCC(C)c2ccccc2)c(=O)c2cccn12 (configuration not stated),-4.0,-10,0.3,1.5%,1,3
N#Cc1ccc(CSc2nnc(-c3cccc(S(=O)(=O)N4CCCCC4)c3)o2)cc1,1.3,-5,1.5,3.6%,-9,-7
CCOc1ccc(N2C(=O)CC(NCC3CCCO3)C2=O)cc1 (configuration not stated),7.3,2,0.0,0.4%,-2,36
CN(C)c1ccc(CNC(=O)CN(C)S(=O)(=O)c2cccc3cccnc23)cc1,1.0,0,0.4,-0.7%,-8,-1
O=C(CNC(=O)/C=C/c1ccco1)N=Nc1c(O)[nH]c2ccccc12,-1.4,2,-0.4,2.5%,-1,·
O=C(Nc1ccc2nc3n(c(=O)c2c1)CCCCC3)C(=O)N1CCN(c2ccccc2)CC1,0.9,-4,-0.8,0.1%,-13,-6
CCOc1ccc(-c2nc(N)ncc2-c2ccc(Cl)cc2)c(O)c1,-1.4,-9,2.7,3.2%,-8,·
CC(C)Oc1ccc(CN=C(N)N=C(N)N)cc1Cl,0.3,-10,2.5,2.4%,-3,8
O=C(N/N=C/c1ccc(O)cc1O)C1CC1,0.1,-3,0.8,-1.2%,-3,·
# Continuation:
SMILES,D2 agonist,D2 PAM,TRPML1 ag,PINK1 modulator,Six1-Eya2 inh,CtBP-E1A blk
COc1ccc(OC)c(-c2cc(C(=O)N3CCN(c4ncccn4)CC3)c3ccccc3n2)c1,-1.7,11,-0.1,0.3%,?,?
COc1ccc(NC(=O)CSc2nccn2Cc2ccco2)cc1OC,-0.5,-8,-0.2&1.4,0.7%&17%,9,3
CC1CCCC(C)N1C(=O)COc1cccc(Oc2ccccc2)c1 (configuration not stated),-1.6,-5,1.4,7.0%,2,10
COc1ccc(C(CNC(=O)c2c(C)nn(Cc3ccc(C)cc3)c2Cl)N2CCOCC2)cc1 (configuration not stated),3.0,8,-0.5,-2.0%,-3,-10
COc1cccc(NC(=O)C(C)SCc2ccccc2)c1 (configuration not stated),3.3,-1,-0.8,0.1%,2,12
COc1ccccc1OCC(=O)Nc1ccc(S(=O)(=O)N(C)c2ccccc2)cc1,0.4,-13,1.3,0.2%,0,1
CCn1c(SCC(=O)NNC(=O)c2ccc(OC)cc2)nnc1C(C)C,-3.0,-10,0.2,0.6%,0,-13
COc1ccc(CCNC(=O)C(=O)NCc2ccc(Cl)cc2)cc1OC,5.0,-3,-1.0,1.4%,2,-19
CCOC(=O)N1CCC(NC(=O)c2cnn3c(C(F)(F)F)cc(-c4cccc(OC)c4)nc23)CC1,-2.7,3,-0.3,?,-6,0
O=C(Nc1ccon1)c1ccccc1F,0.4,0,0.5,1.3%[38.3 µM],2,3
CCC(C)(C)NC(=O)CN(C(=O)CNS(=O)(=O)c1ccc(F)cc1)c1ccc2c(c1)OCCO2,-3.7,-2,-1.5,3.2%,2,10
O=C(NNC(=O)c1cc([N+](=O)[O-])ccc1Cl)c1cccnc1,0.5,-5,-0.2,-0.2%,2,0
Nc1c(Cl)c(Cl)nc(C(=O)OCC(=O)NCc2ccccc2)c1Cl,?,29,-0.8,-0.7%,-1,·
Cc1cccc(NCc2ccc([N+](=O)[O-])s2)c1,13,-1,1.8,0.7%,-3,-5
CCC(CC)C(=O)N(C)c1c(C)nc2c(OCc3cccc(Cl)c3)cccn12,-1.3,-6,0.7,0.7%,-4,-7
O=c1[nH]c2ccccc2c2oc(CCl)nc12,-5.2,-10,-0.3,-1.6%,10,-1
O=C1Nc2ccccc2/C1=N/c1sc2c(c1C(=O)NCCc1ccccc1)CCCC2,-8.6,-34,1.2,-0.2%,1,-8
CN(CC(=O)Nc1cccc(F)c1)C(=O)CNC(=O)Cc1cccc2ccccc12,-8.7,-5,-0.4,2.3%,0,-2
CCCCn1c(N)c(N(CC(C)C)C(=O)c2cc(-c3ccc(OC)c(OC)c3)nc3ccccc23)c(=O)[nH]c1=O,-3.6,-39,0.0,0.1%,3,0
COc1cc(OC)c(NC(=O)c2ccco2)cc1Cl,-1.3,-6,1.0,?,0,-2
COc1ccc(NC(=O)c2cc(-c3ccncc3)nc3ccccc23)c(OC)c1,4.1,0,1.0,1.2%,-9,-12
O=C(O)CSc1nc(-c2ccccc2)nc2c1oc1ccccc12,-1.0,-9,0.2,-3.4%,-3,-7
C[C@H](CO)N1C[C@H](C)[C@@H](CN(C)C(=O)Nc2ccc(C(F)(F)F)cc2)Oc2ccc(NC(=O)Nc3ccc(C(F)(F)F)cc3)cc2C1=O,5.2,6,0.2,0.6%,-2,4

# Sorted by length of the SMILES (highest first): four of the compounds above.
SMILES,D2 agonist,D2 PAM,TRPML1 ag,PINK1 modulator,Six1-Eya2 inh,CtBP-E1A blk
O=C1Nc2ccccc2/C1=N/c1sc2c(c1C(=O)NCCc1ccccc1)CCCC2,-8.6,-34,1.2,-0.2%,1,-8
Cc1cccc(NCc2ccc([N+](=O)[O-])s2)c1,13,-1,1.8,0.7%,-3,-5
COc1cc(OC)c(NC(=O)c2ccco2)cc1Cl,-1.3,-6,1.0,?,0,-2
O=c1[nH]c2ccccc2c2oc(CCl)nc12,-5.2,-10,-0.3,-1.6%,10,-1
